Bioassay records as filed in PubChem.
HNF4A DNA FP = change in binding of human HNF4A to DNA, primary screen, biochemical, fluorescence polarization, FITC-DNA; Hepatocyte nuclear factor 4-alpha (Homo sapiens), P41235; 1 h; activity change, % at 10 µM; actives 0.3% (n = 360,000); AID 1224865, 2016; in the data active = activity change above about 30%, passing the limit was not always enough;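 also: controls were the assay level and a saturating level of protein; the project sought stronger binding though the title names inhibitors; some compounds called inactive have numbers as strong as hits; positive values seem to mean higher polarization but the record does not say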
Target sequence (P41235 whole entry, looked up): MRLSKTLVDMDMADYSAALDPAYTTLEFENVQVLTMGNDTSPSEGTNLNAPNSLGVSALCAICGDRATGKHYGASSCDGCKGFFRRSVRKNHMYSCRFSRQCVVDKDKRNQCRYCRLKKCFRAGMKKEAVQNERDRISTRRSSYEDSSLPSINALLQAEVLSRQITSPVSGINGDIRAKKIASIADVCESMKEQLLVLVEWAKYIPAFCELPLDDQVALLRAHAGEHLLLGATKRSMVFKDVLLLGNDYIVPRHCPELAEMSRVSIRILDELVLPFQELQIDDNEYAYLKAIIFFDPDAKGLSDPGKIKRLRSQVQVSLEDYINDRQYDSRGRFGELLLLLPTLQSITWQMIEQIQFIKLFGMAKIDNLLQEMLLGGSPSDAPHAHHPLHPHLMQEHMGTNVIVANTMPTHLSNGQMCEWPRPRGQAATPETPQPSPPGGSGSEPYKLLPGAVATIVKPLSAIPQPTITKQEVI
Vif TR-FRET = inhibitors of Vif binding to APOBEC3G peptide, primary screen, biochemical, TR-FRET, GST-Vif 1-94, biotin-A3G peptide, dose response retest (AID 1117319). Virion infectivity factor (Human immunodeficiency virus type 1 group M subtype B (isolate …. TR-FRET GST-Vif / biotin-A3G peptide binding; higher % means a stronger effect; test concentration not given here; strong numbers were not always called active. inhibition, %; hits with a dose series show IC50 in µM. actives 0.57% (n = 260,000);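 active = above the screen mean plus three standard deviations and confirmed in dose response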;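 also: Vif residues 1-94 fused to GST binding biotinylated APOBEC3G peptide 110-148; 0% = full assay without inhibitor and 100% = GST in place of GST-Vif; retest series ran down from 100 µM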
Starred values were filed as active, the others as inactive. Only part of the results is shown; the hit share may differ from the screen's.

SMILES | HNF4A DNA FP | Vif TR-FRET
COc1ccc(-c2cnc3c(c2)C(=O)N([C@H](C)CO)C[C@H](C)[C@H](CN(C)C(=O)Cc2cccnc2)O3)cc1 | -2.7 | 0%
O=C1NC(=O)C(c2ccccc2)(c2ccccc2)N1S(=O)(=O)c1ccccc1 | -0.3 | 2%
O=[N+]([O-])c1cccnc1Nc1ccc(Cl)cc1 | -0.8 | 2%
COc1ccc(C(CNC(=O)c2ccc(OCc3csc(C)n3)cc2)N2CCCC2)cc1 (stereo unspecified) | 0.7 | 18%
Cc1ccc(CN2CCC[C@]3(N[C@H](c4ccc(C(F)(F)F)cc4)[C@@H]4C(=O)N(Cc5ccccc5)C(=O)[C@@H]43)C2=O)cc1 | -1.6 | 5%
CC1=C(C(=O)N(C(C)C)C(C)C)CC(CC(=O)NCCN2CCOCC2)C(=O)N1Cc1ccccc1 (stereo unspecified) | -2.9 | -6%
O=c1[nH]c(CN2CCCCC2)ccc1O | -11 | 32%
COCOCCn1cc(CN2CCS(=O)(=O)N(Cc3ccc(-c4cccc(CO)c4)cc3)C(C)C2=O)nn1 (stereo unspecified) | -0.8 | 0%
O=C(NC1CCCCC1)c1ccc2ccccc2c1 | -3.7 | -2%
COc1ccc(Cn2c(=O)oc3ccccc32)cc1OC | -4.4 | -1%
Cc1cccc(NC(=O)CN2C(=O)C3CC=CCC3C2=O)c1C (stereo unspecified) | -0.8 | 1%
O=c1oc(-c2ccc(Cl)cc2[N+](=O)[O-])nc2ccccc12 | -5.7 | -9%
C[C@H](CO)N1C[C@H](C)[C@H](CN(C)C(=O)Nc2ccc3c(c2)OCCO3)OCc2cnnn2CCCC1=O | -0.5 | -1%
CCOC(=O)N(C)C[C@@H]1OCc2cn(nn2)CCCC(=O)N([C@@H](C)CO)C[C@H]1C | 3.1 | -3%
CC1CCCC(C)N1C(=O)COC(=O)CNS(=O)(=O)c1ccc2ccccc2c1 (stereo unspecified) | 2.9 | -8%
O=Cc1c[nH]c2ccc(S(=O)(=O)N3CCCCC3)cc12 | 0.8 | -5%
Cc1ccc(-c2csc3ncnc(N4CCN(S(=O)(=O)c5ccc(C#N)cc5)CC4)c23)cc1 | 1.8 | -39%
C[C@H](CO)N1C[C@H](C)[C@@H](CN(C)C(=O)CN2CCOCC2)Oc2ncc(-c3cncnc3)cc2C1=O | 0.5 | 4%
CCOc1ccc(S(=O)(=O)N2CCOCC2)cc1NC(=O)CN1C(=O)NC(C)(C2CC2)C1=O (stereo unspecified) | -0.6 | -3%
COc1ccccc1CCNC(=O)C1CC(=O)N(c2ccccc2F)C1 (stereo unspecified) | 2.2 | -4%
O=C1NC(Cc2ccc(O)cc2)c2nc3ccccc3c(=O)n2-c2ncccc21 (stereo unspecified) | -2.1 | 2%
C[C@H]1CNC(=O)c2c(C(=O)Nc3ccc(CNC(=O)OC(C)(C)C)cc3)ncn21 | -6.8 | -5%
COc1cc(C(=O)OCCCN2CCOCC2)cc(OC)c1OC | 0.1 | 2%
CCCNC(=O)N(C)C[C@@H]1Oc2ncc(Br)cc2C(=O)N([C@H](C)CO)C[C@@H]1C | 2.1 | -2%
COc1ccc(C)cc1NC(=O)COC(=O)c1c(-c2ccccc2)noc1C | 2.1 | -1%
Cc1ccc(NC(=O)c2nc[nH]c2C(=O)N(C)CCO)cc1 | 0.1 | -2%
O=C(COC(=O)/C=C/c1cccc(F)c1)NC1CCCCC1 | 5.4 | -3%
Cc1ccc(OC(=O)N(C)C[C@H]2OCc3cn(nn3)CCCC(=O)N([C@H](C)CO)C[C@@H]2C)cc1 | -2.7 | 6%
CCCNC(=O)CSc1ccc(S(=O)(=O)N(C)C2CCCCC2)cn1 | 1.2 | -2%
CCOc1ccc(NS(=O)(=O)c2ccc(Cl)c(N=Nc3c(O)[nH]c(=S)[nH]c3=O)c2)cc1Br | -54 | 1%
O=C(Nc1ccn(CCCN2CCC(N3CCOCC3)CC2)c(=O)n1)OCc1ccccc1 | 1.6 | -1%
Cc1ccc(S(=O)(=O)N2C[C@H]3n4c(=O)ccc(=O)n4C[C@H](OC(=O)NCc4ccccc4)[C@@]3(O)C2)cc1 | 1.7 | -8%
O=C(NCc1ccc(F)cc1)c1cccc2c1C(=O)c1ccc(N3CCC(N4CCCCC4)CC3)cc1S2(=O)=O | 56 | 5%
COc1ccc(NC(=O)N(C)C[C@@H]2OCc3cnnn3CCCC(=O)N([C@H](C)CO)C[C@@H]2C)c(OC)c1 | 0.7 | -8%
CNC(=O)c1ccc2cc(OC)c(OC)cc2c1 | -4.1 | -6%
C[C@H](CO)N1C[C@H](C)[C@H](CN(C)C(=O)OCc2ccccc2)OCc2cnnn2CCCC1=O | 3.0 | 10%
CC(C)(C)c1ccc(C(=O)O/N=C(\N)Cc2cccs2)cc1 | -1.0 | -5%
COc1ccccc1S(=O)(=O)N(C)C[C@H]1OCc2cnnn2CCCC(=O)N([C@@H](C)CO)C[C@@H]1C | 2.4 | -6%
CCc1cc(C(=O)N(CC)CC(=O)Nc2c(F)cccc2F)sc1C | -3.0 | 0%
CCN1CCN(C(=O)c2cc(COc3ccc(F)c(F)c3)on2)[C@@H](C)C1=O | 5.7 | -5%

Entries of single compounds, quoted from the list. Order of values: HNF4A DNA FP, Vif TR-FRET
COc1ccc(C(CNC(=O)c2ccc(OCc3csc(C)n3)cc2)N2CCCC2)cc1 (stereo unspecified) in the list: 0.7, 18%
COc1ccc(NC(=O)N(C)C[C@@H]2OCc3cnnn3CCCC(=O)N([C@H](C)CO)C[C@@H]2C)c(OC)c1 in the list: 0.7, -8%
C[C@H](CO)N1C[C@H](C)[C@H](CN(C)C(=O)OCc2ccccc2)OCc2cnnn2CCCC1=O in the list: 3.0, 10%

Other results follow:
SMILES | HNF4A DNA FP | Vif TR-FRET
CCCCOc1ccc(C(=O)NCC(=O)OCCCOC(=O)CNC(=O)c2ccc(OCCCC)cc2)cc1 | 2.8 | -10%
CC(C)N(Cc1nnc(-c2ccccc2Cl)o1)C(=O)COc1cccc(Cl)c1 | -2.6 | -4%
COc1ccc(S(=O)(=O)NCc2ccccn2)cc1C | -2.8 | -2%
CCOc1ccccc1CNC(=O)C1CCN(S(=O)(=O)N2CCC(C)CC2)CC1 | 0.7 | -1%
COc1ccc(S(=O)(=O)N2CCN(Cc3ccccc3OC)CC2)cc1 | -2.2 | -1%
C=CCn1nc(C(=O)OCC)cc1-c1sc(NC(=O)c2ccccc2)nc1C | 5.4 | -6%
COc1cccc(C2=CC(=O)CC(C)(C)C2=O)c1 | -5.1 | -11%
CCC(=O)N(C)C[C@H]1Oc2ncc(C#Cc3ccncc3)cc2C(=O)N([C@@H](C)CO)C[C@@H]1C | 2.1 | -7%
C[C@@H]1CN([C@H](C)CO)C(=O)CCCn2nncc2CO[C@@H]1CN(C)C(=O)Nc1ccc(N2CCCCC2)cc1 | 9.9 | 14%
CCc1ccc(-c2n[nH]nc2C2=CC(=O)C[C@H](c3ccc(F)cc3)C2)cc1 | 0.7 | 3%
O=C(CC(=O)c1ccccc1)Nc1cccc([N+](=O)[O-])c1 | 0.9 | 8%
O[C@H]1CN(CC2CCCCC2)[C@@H](c2ccc(Cl)cc2)C[C@@H]1n1cc(C2CC2)nn1 | 4.3 | -5%
CCC/C=C/c1ccc(CN2C(C)C(=O)N(Cc3cn(CCC4OCCCO4)nn3)CCS2(=O)=O)cc1 (stereo unspecified) | -1.0 | 3%
O=C(C[C@H]1C(=O)N(c2ccccc2)C[C@@H]1Cc1ccccc1)Nc1ccccc1 | 3.4 | 4%
O=C1C(=Cc2cccc(O)c2O)SC(=S)N1CCCN1CCOCC1 | 3.4 | 25%
Cc1cn([C@H]2C[C@H](O)[C@@H](CNCc3ccc(-c4cc(Cl)ccc4C(F)(F)F)o3)O2)c(=O)[nH]c1=O | 3.1 | -4%
COc1ccc(C#Cc2ccc3c(c2)O[C@@H](CN(C)C(=O)Nc2cccc(OC)c2)[C@H](C)CN([C@@H](C)CO)S3(=O)=O)cc1 | 5.5 | -7%
C[C@H](CO)N1C[C@H](C)[C@@H](CN(C)C(=O)Nc2ccccc2F)OCc2cnnn2CCCC1=O | 3.8 | -8%
C=Cc1cnc([N+](=O)[O-])n1C | 2.4 | -3%
COc1cc(N(C(C)=O)c2ccc(O)cc2)c2ncccc2c1 | -0.4 | -2%
Cc1ccc(OCC(=O)Nc2ccc3c(c2)nc(CCN2CCN(c4ccccn4)CC2)n3C)cc1 | 1.4 | 5%
Cc1cc(C)c(OCC(=O)OCC(=O)NCc2ccco2)c(C)c1 | -0.5 | 0%
C#CCN(C[C@H]1[C@H](OC(=O)NC2CCCC2)[C@H](OC(=O)NC2CCCC2)C[C@@H](C(=O)OC)[C@H]1C(=O)OC)S(=O)(=O)c1ccc(C)cc1 | -0.3 | -5%
COc1ccc(S(=O)(=O)N(C)C)cc1NC(=O)COc1ccc2c(c1)CCC2 | -1.8 | 1%
C[C@@H]1CN([C@@H](C)CO)C(=O)CCCn2cc(nn2)CO[C@H]1CN(C)S(=O)(=O)c1ccc(Cl)cc1 | -0.2 | 12%
COc1ccc([C@H]2C[C@@H](O)[C@H](n3cc(-c4ccc(F)cc4)nn3)CN2CC2CCCCC2)cc1 | 3.1 | 2%
Cc1ccc(S(=O)(=O)N2Cc3ccccc3CC2C(N)=O)cc1 (stereo unspecified) | -2.2 | -5%
Cc1sc2ncnc(N3CCC(C(=O)N(C)CC(=O)Nc4cccc(F)c4)CC3)c2c1C | 5.2 | -4%
Cc1noc(C)c1C(=O)OCC(=O)NC(=O)c1ccc(C(C)(C)C)cc1 | -0.6 | 9%
CN(CCO)C(=O)c1nc[nH]c1C(=O)N1CCN(C(=O)OC(C)(C)C)CC1 | 0.5 | 7%
CC(C)NC(=O)Nc1ccc2c(c1)C(=O)N([C@H](C)CO)C[C@H](C)[C@@H](CN(C)Cc1ccc3c(c1)OCO3)OCCCC[C@@H](C)O2 | -3.6 | 0%
Cc1cc(OCC(=O)OCC(=O)N2CCCc3ccccc32)ccc1Cl | 2.1 | -2%
O=C(N/C=C/n1cnc2cc(C(F)(F)F)ccc21)c1ccc(F)cc1 | 1.6 | -4%
Cc1ccc(S(=O)(=O)N2CCCC2CNC(=O)C(=O)NCc2ccc3c(c2)OCO3)cc1 (stereo unspecified) | -3.2 | -3%
COc1ccc(C(=O)CC(C(=O)O)c2ccc(OC)c(OC)c2)cc1OC (stereo unspecified) | -1.6 | -9%
C[C@H](CO)N1C[C@H](C)[C@@H](CN(C)C(=O)CN2CCOCC2)Oc2cc(Br)ccc2S1(=O)=O | -1.9 | -2%
C[C@@H]1CN([C@@H](C)CO)S(=O)(=O)c2ccc(Br)cc2O[C@H]1CN(C)C(=O)Nc1ccc2c(c1)OCO2 | 1.4 | -5%
COc1ccc(C(=O)Nc2ccc3c(c2)OCCO3)c(OC)c1 | -0.3 | 2%
O=C1CN(C(=O)CN2CCN(S(=O)(=O)c3ccccc3F)CC2)c2ccccc2N1 | -1.0 | -6%
Cc1ncc(C(O)c2ccccc2)n1Cc1ccccc1 (stereo unspecified) | 1.2 | 1%

Reformatted as labelled records: entries from further up.
Cc1cc(OCC(=O)OCC(=O)N2CCCc3ccccc32)ccc1Cl
- HNF4A DNA FP = 2.1
- Vif TR-FRET = -2%

O=C(N/C=C/n1cnc2cc(C(F)(F)F)ccc21)c1ccc(F)cc1
- HNF4A DNA FP = 1.6
- Vif TR-FRET = -4%

Sorted by molecular weight (descending): some entries from above
SMILES | HNF4A DNA FP | Vif TR-FRET
COc1ccc([C@H]2C[C@@H](O)[C@H](n3cc(-c4ccc(F)cc4)nn3)CN2CC2CCCCC2)cc1 | 3.1 | 2%
CCCNC(=O)CSc1ccc(S(=O)(=O)N(C)C2CCCCC2)cn1 | 1.2 | -2%
C=Cc1cnc([N+](=O)[O-])n1C | 2.4 | -3%

Additional records
SMILES | HNF4A DNA FP | Vif TR-FRET
CSCC[C@H]1COC[C@@H](Cc2ccccc2)N1c1ccccc1 | -2.3 | -9%
Cc1ccc([C@H]2C[C@@H](O)[C@H](n3cc(C4CC4)nn3)CN2CC2CCCCC2)cc1 | -1.8 | -8%
O=C(NCc1nnc(SCC(=O)N2CCOCC2)o1)c1ccccc1 | 0.8 | 8%
CC(=O)Oc1cccc(C2=CC(=O)CC(C)(C)C2=O)c1 | 1.3 | 7%
NS(=O)(=O)c1cccc(C(=O)N2CCCc3ccccc32)c1 | 5.5 | 6%
CCOC(=O)C1=C(C)NC(C)=C(C(=O)OCC)C1c1ccc(OC)c(OC)c1 | 1.4 | 2%
COc1cccc(C(=O)N2CCCc3ccccc32)c1OC | -1.0 | 4%
O=C(CNc1ccc(Br)cc1)Nc1ccc(S(=O)(=O)N2CCCCC2)cc1 | 1.2 | -1%
CC(=O)c1sc(NC(=O)CCc2ccccc2)nc1C | 5.7 | -15%
CCn1c(SCC(=O)Nc2ccccc2)nc2c(c1=O)SCC2 | -1.6 | 0%
COc1cccc(Nc2nc3cc(C)ccc3cc2C)c1 | 1.0 | 4%
C[C@@H]1CN([C@@H](C)CO)C(=O)c2cc(Br)cnc2O[C@@H]1CN(C)C(=O)CN(C)C | 2.7 | -6%
O=C1c2cccc3c2C2(O)c4c1cccc4C(=O)c1cccc(c12)C3=O | 0.1 | 2%
Cc1nnc(SCC(=O)Nc2cccc(S(=O)(=O)N3CCCC3)c2)n1C1CC1 | 2.1 | -6%
C[C@H](CO)N1C[C@H](C)[C@H](CN(C)C(=O)Nc2ccc(C(C)(C)C)cc2)OCc2cnnn2CCCC1=O | 1.7 | 14%
CC(=O)Nc1ccc(S(=O)(=O)N(C)CC(=O)OC(C)C(=O)NC2(C#N)CCCCC2)cc1 (stereo unspecified) | -2.2 | -3%
COc1ccc(NC(C)=O)cc1S(=O)(=O)NCc1ccc2c(c1)OCO2 | 7.5 | 18%
O=C(COC(=O)COc1ccc(Br)cc1)NC1CCS(=O)(=O)C1 (stereo unspecified) | -2.9 | -2%
